Screening results as filed in PubChem.
UCH37 DUB inh – blocks the human deubiquitinase UCH37; 0.33% of 330,000 active; purified proteasome/UCH37, Ub-AMC cleavage fluorescence; Q9Y5K5; inhibition, % (concentration not given with the values); AID 588478;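 active means mean of two replicates above 20%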;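 further: 0% = compound-free wells with enzyme and 100% = wells lacking proteasome; stock transfer was 100 nL into about 20 µL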
Target sequence (Q9Y5K5 whole entry, looked up): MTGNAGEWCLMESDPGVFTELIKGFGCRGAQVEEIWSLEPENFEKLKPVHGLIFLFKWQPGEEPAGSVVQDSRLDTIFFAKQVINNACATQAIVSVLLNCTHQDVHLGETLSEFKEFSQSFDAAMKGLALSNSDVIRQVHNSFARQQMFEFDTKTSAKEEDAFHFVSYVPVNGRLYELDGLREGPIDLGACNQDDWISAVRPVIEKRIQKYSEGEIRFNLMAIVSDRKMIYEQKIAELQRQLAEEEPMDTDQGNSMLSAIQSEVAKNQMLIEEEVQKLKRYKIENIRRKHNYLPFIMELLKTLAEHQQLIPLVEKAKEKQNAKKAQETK
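Material: Human UCH37 enzyme supplied as purified proteasome complex | Schedule: 30 min preincubation with enzyme, 25 min cleavage at room temperature | Detection: AMC fluorescence 355/460 nm | Measure: % inhibition of Ub-AMC cleavage fluorescence | Controls: Wells without proteasome as full block, compound-free enzyme plus substrate as uninhibited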
Beta2AR agonist – human beta-2 adrenergic receptor agonism by FAP | Am2.2-beta2AR cells, FAP receptor internalization, flow cytometry; reference of the scale not given here | response, % (no concentration beside the values) | 0.43% of 340,000 active | P07550;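 active means response above a set limit, near 3 SD of response in nonfluorescent compounds, cut at about 42% in these data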;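 further: stock transfer was 100 nL into about 11 µL; a reference agonist was the positive control; negative values mostly stem from fluorescent compounds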
Target sequence (P07550 whole entry, looked up): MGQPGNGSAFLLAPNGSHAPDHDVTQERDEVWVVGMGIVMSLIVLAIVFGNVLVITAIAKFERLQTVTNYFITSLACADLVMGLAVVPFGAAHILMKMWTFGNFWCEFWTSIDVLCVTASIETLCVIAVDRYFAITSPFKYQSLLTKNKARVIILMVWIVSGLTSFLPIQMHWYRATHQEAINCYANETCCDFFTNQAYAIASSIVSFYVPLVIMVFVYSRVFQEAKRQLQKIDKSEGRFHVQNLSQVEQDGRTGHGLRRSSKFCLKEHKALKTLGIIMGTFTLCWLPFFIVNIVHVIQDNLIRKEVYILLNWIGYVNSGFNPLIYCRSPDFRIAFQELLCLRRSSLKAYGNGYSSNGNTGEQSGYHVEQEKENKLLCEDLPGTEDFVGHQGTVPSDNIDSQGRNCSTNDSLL
RanGTP-Imp inh – disruptors of Ran-importin-beta complex formation – biochemical, FRET, CFP-Ran, YFP-importin-beta, homogeneous, primary screen | cell-free CFP-Ran/YFP-importin-beta FRET ratio | inhibition, % (test concentration not listed) | 1.1% of 300,000 active | AID 2216;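 active means most replicates above 15%; inconclusive means exactly half above 15%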;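 further: 0% = DMSO wells and 100% = Ran loaded with GDP instead of GTP; wells of about 40 µL received 100 nL stock; the first replicate is given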
Calb FLC – C. albicans growth modulation with fluconazole; C. albicans CaCi-2 (fluconazole-resistant clinical isolate) + fluconazole, Alamar Blue growth, 48 h; AID 1979; 0.57% of 300,000 active; growth inhibition, % (test concentration not listed);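 active means most replicates above 75%; inconclusive means exactly half above 75%; inactive means most below 75%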;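 further: all wells also contain fluconazole at 8 µg/ml as a sub-toxic cotreatment; 0% = median of DMSO wells and 100% = median of geldanamycin control wells; wells of about 8 µL received 7.5 nL stock; the first replicate is given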
Bfl-1 A1 inh – inhibitors of the anti-apoptotic protein A1, read as caspase activation; MEF A1-2A-BIM cells, Caspase-Glo 3/7 luminescence, 3 h; percent of clofoctol response, vehicle zero; caspase activation, % (concentration not given with the values); 0.066% of 330,000 active;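 active means over half of replicate activation scores above 10%, or exactly half above 10 with the replicate mean above 10; inconclusive means replicate mean below 10 yet half the replicates above 10; inactive means over half of replicates below 10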;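 further: wells of about 30 µL received 50 nL stock; many hits fall short of the cut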
LANA-H2A inh – blocks KSHV LANA binding to histone H2A/H2B | Q9QR71 | cell-free LANA-H2A/H2B peptide, fluorescence polarization | inhibition, % (no concentration beside the values) | 0.6% of 320,000 active; in the data active means inhibition mostly above about 10%, no sharp cut-off; inactive means mostly below about 6.7%;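 further: stock transfer was 7.5 nL into about 10 µL; 0% = median of vehicle wells and 100% = median of positive control wells; one replicate is shown; the record names a cut of 25% in any replicate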
T cruzi inh – T. cruzi replication inhibition; T. cruzi beta-gal in NIH3T3, luminescence, 90 h; inhibition, % (no concentration beside the values); 1.4% of 300,000 active; AID 1885;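 active means mean inhibition across valid replicates above about 55%, limit read from the data; inconclusive means mean below that limit but half or more replicates reach it; inactive means mean below it, under half of replicates reach it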;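 further: signal also drops with host cell toxicity which is not excluded here; 0% = plate median of DMSO wells and 100% = zero luminescence signal; higher percent means less beta-gal luminescence so fewer parasites; stock transfer was 50 nL into about 50 µL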
Beta cell apopt – beta cell apoptosis inhibition; INS-1E cytokine-induced death, ATP luminescence, 48 h; percent of positive-control rescue, neutral wells zero; protection from apoptosis, % (no concentration beside the values); 0.8% of 300,000 active;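 active means all replicates at 75% or more, or half of them and the mean; inconclusive means half reach 75% but not the mean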;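 further: 0% = cytokine-treated negative control wells and 100% = positive control rescue; higher means more ATP so stronger rescue from cytokine killing; wells of about 40 µL received 100 nL stock; the first replicate is given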
The depositor's hits bear a star.

COC(C[C@@H]1O[C@@H]1[C@H](O)COCc1ccccc1)OC was read as UCH37 DUB inh 0.4, Beta2AR agonist 1.6, Bfl-1 A1 inh 0.7, LANA-H2A inh 0.7 and Beta cell apopt -4.2.
`COc1ccc(-c2[nH]ncc2CN2CCC(OCc3ccccc3)CC2)c(F)c1` gave UCH37 DUB inh 0.8, Beta2AR agonist -5.2, RanGTP-Imp inh 1.2, Calb FLC -17.8, Bfl-1 A1 inh 0.6, LANA-H2A inh -43.4, T cruzi inh 19.2 and Beta cell apopt 0.8.
CCCCC(=O)Nc1ccccc1C(C)C was read as UCH37 DUB inh 1.3, RanGTP-Imp inh -1.3, Calb FLC -5.1, Bfl-1 A1 inh -0.6, LANA-H2A inh -3.7, T cruzi inh -5.7 and Beta cell apopt -1.0.
`COc1ccc(C(=O)NNC(=S)NC(=O)/C=C/c2cccs2)cc1` gave UCH37 DUB inh 6.0, Beta2AR agonist -4.3, RanGTP-Imp inh -1.2, Calb FLC 51.4, Bfl-1 A1 inh -1.0, LANA-H2A inh -0.1, T cruzi inh -14.6 and Beta cell apopt 18.2.
`Cc1cc(C)c(N(C(=O)c2csnn2)C(C(=O)NC2CCCC2)c2ccncc2)c(C)c1` (stereo not given) gave UCH37 DUB inh 1.8, Beta2AR agonist -5.8, RanGTP-Imp inh 3.6, Calb FLC 5.3, Bfl-1 A1 inh -0.4, LANA-H2A inh -1.0, T cruzi inh 7.2 and Beta cell apopt -0.5.
COc1cccc(CC(=O)N(CCC2=CCCCC2)c2c(N)n(Cc3ccccc3)c(=O)[nH]c2=O)c1 was read as UCH37 DUB inh 1.1, Beta2AR agonist 1.9, RanGTP-Imp inh 1.3, Calb FLC -4.3, Bfl-1 A1 inh 1.6, LANA-H2A inh -0.8 and T cruzi inh 15.3.
Screening COC(=O)c1c(NC(=O)c2ccco2)sc(C(=O)N(C)C)c1C returned UCH37 DUB inh 5.3, Beta2AR agonist -9.8, RanGTP-Imp inh -1.4, Calb FLC -5.4, Bfl-1 A1 inh 0.6, LANA-H2A inh -1.3, T cruzi inh -0.2 and Beta cell apopt -3.1.
CC(=O)N1CCOc2ccc(S(=O)(=O)N(C)c3ccc(C)cc3)cc21 was read as UCH37 DUB inh 3.1, Beta2AR agonist -4.0, RanGTP-Imp inh 3.3, Calb FLC -0.1, Bfl-1 A1 inh 0.3, LANA-H2A inh 0.1, T cruzi inh -1.7 and Beta cell apopt -3.4.
`Cc1ccc(C(=O)Nc2ncccc2C)cc1S(=O)(=O)N1CCCCC1` gave UCH37 DUB inh 1.2, Beta2AR agonist 2.2, RanGTP-Imp inh -0.7, Calb FLC 0.3, Bfl-1 A1 inh -0.8, LANA-H2A inh -2.4, T cruzi inh 9.4 and Beta cell apopt -6.2.
Screening O=C(COC(=O)COc1ccccc1[N+](=O)[O-])Nc1ccccc1Br returned UCH37 DUB inh 3.7, Beta2AR agonist 5.5, RanGTP-Imp inh -2.3, Calb FLC 5.9, Bfl-1 A1 inh 0.5, LANA-H2A inh 4.2, T cruzi inh -11.4 and Beta cell apopt -3.1.
Screening CCn1ccnc1CN(C)C(=O)C1CCC(=O)N(Cc2cccc(F)c2)C1 (stereo not given) returned UCH37 DUB inh 2.5, Beta2AR agonist 5.2, RanGTP-Imp inh 2.1, Calb FLC -12.7, Bfl-1 A1 inh -0.2, LANA-H2A inh -2.0, T cruzi inh -14.8 and Beta cell apopt -1.1.
O=C(CCN1CCc2ccccc2C(O)(c2ccccc2)C1)c1ccc2c(c1)OCCO2 (stereo not given) was read as UCH37 DUB inh 1.0, Beta2AR agonist 23.7, RanGTP-Imp inh 4.8, Calb FLC -3.1, Bfl-1 A1 inh 0.6, LANA-H2A inh -3.3, T cruzi inh 7.8 and Beta cell apopt -52.3.
Screening CN(C)S(=O)(=O)c1ccc(C(=O)Nc2nnc(-c3cccs3)o2)cc1 returned UCH37 DUB inh 52.0*, Beta2AR agonist 37.1, RanGTP-Imp inh 0.3, Calb FLC 9.6, Bfl-1 A1 inh -0.4, LANA-H2A inh -3.7, T cruzi inh -24.1 and Beta cell apopt 0.9.
Screening COc1cccc(/C=N/NC(=O)CCC(=O)Nc2ccc(Br)cc2)c1 returned Beta2AR agonist -9.4, RanGTP-Imp inh 2.9, Calb FLC -1.0, Bfl-1 A1 inh 0.0, LANA-H2A inh 1.3, T cruzi inh -9.1 and Beta cell apopt 6.0.
For COCCN(C(=O)c1ccccc1Oc1ccccc1)c1c(N)n(CC(C)C)c(=O)[nH]c1=O the results were UCH37 DUB inh 1.5, Beta2AR agonist 1.7, Bfl-1 A1 inh -1.6, LANA-H2A inh 1.3 and Beta cell apopt -6.4.
For NS(=O)(=O)c1ccc(CCNS(=O)(=O)Cc2ccc(Cl)cc2)cc1 the results were UCH37 DUB inh -0.4, Beta2AR agonist -6.1, RanGTP-Imp inh -3.5, Calb FLC -12.5, Bfl-1 A1 inh -0.2, LANA-H2A inh -1.3, T cruzi inh -5.2 and Beta cell apopt -0.4.
For O=C1NC2(CCSC2)C(=O)N1CC(=O)N(Cc1ccccc1)C1CCS(=O)(=O)C1 (stereo not given) the results were UCH37 DUB inh 1.3, Beta2AR agonist -8.1, RanGTP-Imp inh 0.5, Calb FLC 9.0, Bfl-1 A1 inh 0.7, LANA-H2A inh 12.4, T cruzi inh -4.6 and Beta cell apopt -1.1.
`COc1ccc(C(C(=O)NCc2ccccc2)N(C(=O)c2snc(C(N)=O)c2N)C2CCCC2)cc1` (stereo not given) gave UCH37 DUB inh -35.4, Beta2AR agonist -0.6, RanGTP-Imp inh 0.1, Calb FLC -1.0, Bfl-1 A1 inh 0.0, LANA-H2A inh -0.3, T cruzi inh 3.4 and Beta cell apopt 3.6.
`C=CCN1C(=O)C2(/C(=C(\O)c3ccc4c(c3)OCCO4)C(=O)C(=O)N2CCCOC)c2ccccc21` (stereo not given) gave UCH37 DUB inh 9.6, Beta2AR agonist -5.4, RanGTP-Imp inh 8.2, Calb FLC -2.7, Bfl-1 A1 inh -0.2, LANA-H2A inh 0.8, T cruzi inh -11.5 and Beta cell apopt -6.3.
Screening COc1cc(OC)c(CN2CCC(CO)(CCOc3ccccc3)CC2)c(OC)c1 returned UCH37 DUB inh 1.6, Beta2AR agonist 11.0, RanGTP-Imp inh -2.4, Calb FLC -37.4, Bfl-1 A1 inh 0.4, LANA-H2A inh 4.2, T cruzi inh 48.7 and Beta cell apopt 7.0.
For COc1ccc(-c2cc(C(F)(F)F)nc(SCC(=O)NCCCN3CCOCC3)n2)cc1 the results were UCH37 DUB inh -138.0, Beta2AR agonist -1.4, Calb FLC -3.3, Bfl-1 A1 inh 0.4, LANA-H2A inh 0.4, T cruzi inh -2.6 and Beta cell apopt -7.6.
Screening NC(=O)COC(=O)/C=C/c1ccccc1[N+](=O)[O-] returned UCH37 DUB inh 4.0, Beta2AR agonist 6.0, RanGTP-Imp inh -1.5, Calb FLC 8.2, Bfl-1 A1 inh 0.0, LANA-H2A inh 2.5, T cruzi inh -18.9 and Beta cell apopt -6.6.
CC(C)(C)c1ccc(S(=O)(=O)Nc2ccccn2)cc1 was read as UCH37 DUB inh 2.4, Beta2AR agonist 8.5, RanGTP-Imp inh 2.2, Calb FLC -17.0, Bfl-1 A1 inh -0.5, LANA-H2A inh 0.0, T cruzi inh 11.1 and Beta cell apopt 1.5.
For CCOC(=O)[C@@H]1[C@H]2COc3ccc(Br)cc3[C@@H]2N2C(=O)N(c3cccc(Cl)c3)C(=O)[C@@]12C the results were UCH37 DUB inh 3.4, Beta2AR agonist -1.7, Bfl-1 A1 inh 0.0, LANA-H2A inh 2.0 and Beta cell apopt -1.3.
CCOC(=O)c1c(-c2ccc(C)c(C)c2)csc1NC(=O)C1CC=CCC1C(=O)O (stereo not given) was read as UCH37 DUB inh 3.8, Beta2AR agonist -19.5, RanGTP-Imp inh -2.6, Calb FLC -5.2, Bfl-1 A1 inh 0.3, LANA-H2A inh -2.2 and T cruzi inh -7.4.
Screening COc1ccc(C(=O)NC2CC2)cc1OC1CCN(Cc2ccc(F)cc2Cl)CC1 returned UCH37 DUB inh 2.2, Beta2AR agonist -2.1, RanGTP-Imp inh 8.3, Calb FLC -5.3, Bfl-1 A1 inh -0.9, LANA-H2A inh -0.8, T cruzi inh -0.3 and Beta cell apopt 5.6.
Screening COc1ccc(CN2CCN(Cc3cc4ccccc4o3)CC2CCO)cc1C (stereo not given) returned UCH37 DUB inh -0.9, Beta2AR agonist -3.0, RanGTP-Imp inh 3.3, Calb FLC -3.6, Bfl-1 A1 inh 0.7, LANA-H2A inh 2.8 and T cruzi inh 54.6*.
For CSc1nnc(-c2cccn(Cc3ccccc3)c2=O)o1 the results were UCH37 DUB inh inactive, Beta2AR agonist -2.9, RanGTP-Imp inh 5.6, Calb FLC -2.7, Bfl-1 A1 inh 0.4, LANA-H2A inh -0.6 and T cruzi inh -5.0.
For O=C(NCc1cccnc1)c1nc(-c2ccc(C(F)(F)F)cc2)no1 the results were UCH37 DUB inh -1.3, Beta2AR agonist -0.7, RanGTP-Imp inh -3.3, Calb FLC -4.4, Bfl-1 A1 inh 0.1, LANA-H2A inh -3.3, T cruzi inh -2.7 and Beta cell apopt 0.1.
Screening COc1ccc(C(NC(=O)/C=C/c2ccco2)c2ccc(OC)c(OC)c2)cc1 (stereo not given) returned UCH37 DUB inh 4.1, Beta2AR agonist -5.3, RanGTP-Imp inh -2.2, Calb FLC 31.6, Bfl-1 A1 inh -0.1, LANA-H2A inh 1.1, T cruzi inh 2.2 and Beta cell apopt 1.2.
`COC(=O)c1c(C(=O)OC)c(-c2cccc(C)c2)n2c1CS(=O)C2` (stereo not given) gave UCH37 DUB inh 2.5, Beta2AR agonist 2.4, RanGTP-Imp inh -2.3, Calb FLC -5.8, Bfl-1 A1 inh 2.0, LANA-H2A inh 3.8, T cruzi inh -3.6 and Beta cell apopt -3.7.
Screening CSc1nc(N(C)C)c2ccccc2n1 returned UCH37 DUB inh 3.4, Beta2AR agonist -2.3, RanGTP-Imp inh 5.0, Calb FLC 19.6, Bfl-1 A1 inh -0.6, LANA-H2A inh 0.4, T cruzi inh -12.2 and Beta cell apopt -10.0.
Screening COc1ccc(N(CC(=O)Nc2ccccc2C(=O)NCCc2ccccc2)S(C)(=O)=O)cc1OC returned UCH37 DUB inh 4.7, Beta2AR agonist -6.5, RanGTP-Imp inh 2.7, Calb FLC inconclusive, Bfl-1 A1 inh -0.9, LANA-H2A inh 2.6 and Beta cell apopt 1.1.
`COc1cccc(C2CCCN2Cc2nc(CC3CC3)no2)c1` (stereo not given) gave UCH37 DUB inh 3.8, Beta2AR agonist 7.0, RanGTP-Imp inh 6.6, Calb FLC -16.5, Bfl-1 A1 inh 0.2, LANA-H2A inh -2.4, T cruzi inh -6.2 and Beta cell apopt 0.4.
For CS(=O)(=O)N(CC(=O)N1CCN(c2cccc(Cl)c2)CC1)C1CCCCC1 the results were UCH37 DUB inh 3.3, Beta2AR agonist -13.6, RanGTP-Imp inh inconclusive, Calb FLC -3.1, Bfl-1 A1 inh -0.3, LANA-H2A inh 0.6, T cruzi inh -7.2 and Beta cell apopt -7.0.
